From PubChem BioAssay
H5N1 CPE: MDCK cell protection from H5N1 avian flu. 96,000 compounds, 0.07% hits. inhibition, % at 50 µM. cytopathic effect, luminescence, 72 h; stronger effect = higher value; no value below 0 was filed and about half of the inactive calls have no number; reference of the scale not given here; in the data active = inhibition above about 25%
* hit, by the source's call; i = inactive. Not all compounds are listed, so the mix of outcomes need not match the whole.

Start of the data: the first 2 compounds as a preview:
mol | H5N1 CPE
O=C(CSc1nnc(Cc2cccs2)n1-c1ccccc1)NCc1ccc2c(c1)OCO2 | 1.8
O=C(CSc1nc2ccccc2o1)Nc1ccc(N2CCOCC2)c(Cl)c1 | 1.9

Main list, from the start:
mol | H5N1 CPE
O=C(CSc1nnc(Cc2cccs2)n1-c1ccccc1)NCc1ccc2c(c1)OCO2 | 1.8
O=C(CSc1nc2ccccc2o1)Nc1ccc(N2CCOCC2)c(Cl)c1 | 1.9
COC(=O)CC1(c2cccc3ccccc23)C(=O)c2ccccc2C1=O | 1.9
COn1c(-c2ccccc2)nc2ccc(Cl)cc21 | 1.7
CCOC(=O)CNC(=O)CSc1nnc(COc2ccc(Cl)cc2)n1CC | 0.5
COc1cc(C2C=C(C34CC5CC(CC(C5)C3)C4)NC(=S)N2)cc(OC)c1OC (stereo unspecified) | 2.1
CC1(C)NC(=O)N(CC(O)COc2ccccc2-c2ccccc2)C1=O (stereo unspecified) | i
O=C(Nc1cc(C(F)(F)F)ccc1N1CCCCC1)c1ccco1 | i
CC1(C)Cc2c(sc3c4nnnn4c4nnnn4c23)CO1 | 3.8
COc1cc(-c2nc(S(=O)(=O)c3ccc(C)cc3)c(N3CCOCC3)o2)cc(OC)c1OC | 1.7
CC(NC(=O)c1cccnc1)C(c1ccccc1)N1CCN(C)CC1 (stereo unspecified) | 0.4
Cc1cc(C)n2ncc(C(=O)NCc3ccccc3)c2n1 | i
c1ccc(CCN2CCN(c3ncnc4c3cnn4-c3ccccc3)CC2)cc1 | i
Cc1cc(C(=O)N/N=C\c2ccc(COc3ccc([N+](=O)[O-])cc3)o2)ccc1[N+](=O)[O-] | 1.7
CCNS(=O)(=O)c1c(C)cc(N2CCCC2=O)cc1C | 1.0
CCCCN(C)CCCNC(=O)c1cccc(N2CCCC2=O)c1 | i
Cc1nnc(SCCn2c(N3CCN(Cc4ccccc4)CC3)nc3c2c(=O)[nH]c(=O)n3C)s1 | 1.5
CCOc1ccccc1C(=O)N1CCN=C1SCc1cccnc1 | 0.2
Cc1cc(C(=O)Cn2nnc3ccccc3c2=O)c(C)n1Cc1cccs1 | i
Cc1cccc(-n2ccnc2SCC(=O)Nc2nccs2)c1C | 1.6

4 entries from above in another layout.
> CC1(C)NC(=O)N(CC(O)COc2ccccc2-c2ccccc2)C1=O (stereo unspecified)
  H5N1 CPE: i

> O=C(Nc1cc(C(F)(F)F)ccc1N1CCCCC1)c1ccco1
  H5N1 CPE: i

> CC1(C)Cc2c(sc3c4nnnn4c4nnnn4c23)CO1
  H5N1 CPE: 3.8

> COc1cc(-c2nc(S(=O)(=O)c3ccc(C)cc3)c(N3CCOCC3)o2)cc(OC)c1OC
  H5N1 CPE: 1.7

The list continues:
mol | H5N1 CPE
CSc1nc2ccc3nc(NC(=O)c4ccc(C)cc4)sc3c2s1 | i
CCc1cc(=O)oc2cc(OCC(=O)N3CCCc4ccccc43)ccc12 | 0.9
O=C(NCc1ccc2c(c1)OCO2)c1ccc(COc2cc(Cl)ccc2Cl)o1 | 0.4
O=C(NCC1COc2ccccc2O1)c1ccccc1 (stereo unspecified) | i
CSc1nc(-c2ccc(C)cc2)nc(C(Cl)Cl)n1 | i
CC(C)C(=O)Nc1sc2c(c1-c1nc3ccccc3[nH]1)CCCC2 | i
CCNC(=S)NNC(=O)c1ccccc1OC(F)F | 2.7
Cc1ccc(-c2cc(C(=O)Nc3nn[nH]n3)c3ccccc3n2)cc1 | i
Cn1c(=N)n(CC(O)c2ccco2)c2ccccc21 (stereo unspecified) | 1.7
CC(=O)N1CCc2cc(S(=O)(=O)CCC(=O)N3CCc4ccccc4C3)ccc21 | 1.9
COCCCN1C(=O)C(O)=C(C(C)=O)C1c1ccccn1 (stereo unspecified) | 0.2
Cc1ccc(C)c(SCC(=O)OCC(=O)c2ccco2)c1 | 0.8
CCOC(=O)c1sc(NC(=O)c2cc3n(n2)C(C(F)(F)F)CC(c2ccccc2)N3)c(C(=O)OCC)c1C (stereo unspecified) | 0.0
CC(CC(=O)Nc1nc2ccccc2[nH]1)c1ccccc1 (stereo unspecified) | i
Cc1ccc(C(=O)CSc2nc(C)cc(=O)[nH]2)cc1 | 0.2
CC(O)c1nc2ccccc2n1C/C=C/c1ccccc1 (stereo unspecified) | 2.6
CC(c1nnc(Sc2nnnn2-c2ccccc2)n1-c1ccc(F)cc1)N(C)C (stereo unspecified) | i
Cc1sc2ncnc(OCC(=O)N3CCN(S(=O)(=O)c4ccccc4)CC3)c2c1C | 0.8
CCn1ncc(/C=C/C(=O)NCc2cn(C)nc2C)c1C | i
CC(=O)C1=C(O)C(=O)N(CCc2c[nH]c3ccccc23)C1c1cccc(O)c1 (stereo unspecified) | 0.4
O=C(O)c1cccc(Nc2ncnc3ccccc23)c1 | i
COc1ccc(C(=O)NC2CCCCC2)cc1S(=O)(=O)N1CCCC1 | 0.3
O=C(Nc1cccc2ccccc12)N1CCN(c2ccccc2)CC1 | 0.2
O=C(Cn1cc(C(F)(F)F)ccc1=O)N1CCN(S(=O)(=O)c2ccccc2)CC1 | i
O=C(Nc1ccc(Br)cc1)C1CC=CCC1C(=O)OCC1CCCO1 (stereo unspecified) | i
CCOC(=O)N1CCN(S(=O)(=O)c2ccc(OC)c(Cl)c2Cl)CC1 | 2.3
CCN(CC(=O)Nc1ccccc1Br)Cc1nc2ccccc2c(=O)[nH]1 | 0.8
CCOc1ccc2c(c1)C(c1ccc(C)cc1)=NNC(c1ccc(OC)cc1)=N2 | i
COc1ccccc1NC(=O)COc1ccccc1 | 0.8
CCCOC(=O)C1C2C=CC(C2)C1C(=O)OCC(=O)c1ccccc1 (stereo unspecified) | i
C=CCNc1nc(-c2ccccc2)nc(-n2ccnc2)n1 | 0.6
CC(=O)NC(CCS(C)(=O)=O)C(=O)Nc1cccc(Cl)c1Cl (stereo unspecified) | i
COc1ccc(-c2nc(C(N)=O)c3[nH]c(=O)n(-c4cccc(C)c4)c3n2)c(OC)c1 | 1.6
COCCNC(=O)C(c1ccncc1)N(C(=O)Cn1nnc2ccccc21)c1ccc(OC)cc1 (stereo unspecified) | 0.6
CN(CC(=O)NCc1ccncc1)S(=O)(=O)c1ccc(F)cc1 | 0.3
O=C(Cn1cc2c(n1)CCCC2)N1CCOCC1 | 0.9
COc1nccnc1NS(=O)(=O)c1ccc(N=Cc2c(C)[nH]n(-c3ccc(C)c(C)c3)c2=O)cc1 | i
CC(C)C(=O)Nc1cccc(NC(=S)NC(=O)c2ccccc2Cl)c1 | i
Cc1cc(N2C(=O)C(=O)/C(=C(/O)c3ccc(F)cc3)C2c2cccc(Br)c2)no1 (stereo unspecified) | 0.3
O=C1c2ccccc2C(=O)N1CCCCSc1nnc2ccccn12 | 0.5
Cn1c(C(=O)OC(C(=O)NC2CCCCC2)c2cccnc2)cc2sccc21 (stereo unspecified) | 0.4
CC1CCCN(S(=O)(=O)c2cccc(-c3cn4cccnc4n3)c2)C1 (stereo unspecified) | 1.8
OCCN1CN=C(Nc2nc3ccccc3s2)NC1 | 1.5
CCCCn1c(O)c(C(CC)=Nc2ccc(C(=O)O)cc2)c(=O)[nH]c1=O | i
CON(C)c1nc(OCCNC(=O)COc2ccc(Cl)cc2C)nc(N(C)C)n1 | i
Cc1ccc(-c2noc(C3CCCN(C(=O)c4c(F)cccc4F)C3)n2)cc1 (stereo unspecified) | i
Cc1cc(NC(=O)C2CCCCC2)nc2c1c(=O)oc1ccccc12 | i
Cc1cc(C)n2nc(SCCC(=O)NCCc3ccccc3)nc2n1 | 0.4
COc1ccc(NC(=O)CSc2nnc(-c3cccs3)n2C)cc1OC | i
CCN(CC)S(=O)(=O)c1cccc(S(=O)(=O)N2CCCCC2)c1 | 2.7
O=C(CN1CCN(CC(=O)Nc2ccccn2)CC1)Nc1ccccn1 | i
C=CCNC(=S)Nc1cccc2ccccc12 | 0.0
Cc1ccc(C)c(N(CC(=O)NCc2ccc3c(c2)OCO3)C(=O)CCC(=O)Nc2ccccn2)c1 | i
c1ccc(-c2nc(-c3cccs3)[nH]c2-c2ccccc2)cc1 | i
Nc1nc(-c2ccco2)c(-c2ccco2)s1 | i
O=C(CN(C(=O)Cn1nnc(-c2cccs2)n1)c1ccc2c(c1)OCCO2)NCC1CCCO1 (stereo unspecified) | 1.2
O=C(c1ccco1)c1cc2c(ccc3ccccc32)oc1=O | 1.2
COC(=O)c1ccc2nc(C(F)(F)F)[nH]c2c1 | 0.4
Cc1cccn2c(=O)c3cc(C#N)c(=O)n(CCCN4CCOCC4)c3nc12 | 12
COc1cc(=O)n(C)c2ccccc12 | i

(continued)
mol | H5N1 CPE
COc1ccc(C(=O)c2ccc(OC)c(OC)c2)cc1 | i
CCN(CC)CCNC(=O)c1ccc(NC2=NC3CS(=O)(=O)CC3S2)cc1 (stereo unspecified) | i
CCN(CC)S(=O)(=O)c1ccc(NS(=O)(=O)c2cccc(C)c2)cc1 | 2.0
CN(C)c1nc(C(=O)NN)nc(N(C)C)n1 | i
COC(=O)C1=C(C)OC(N)=C(C#N)C1c1cc(OC)c(OCC(N)=O)cc1Cl (stereo unspecified) | i
O=C(COC(=O)c1ccc(S(=O)(=O)N2CCCC2)cc1)NCc1ccc(F)cc1 | i
CCSCC1COC(c2cccn2Cc2ccc(C)cc2)=N1 (stereo unspecified) | i
CCN(CC)c1ccc(NC(=O)CCCCCN2C(=O)c3ccccc3C2=O)cc1 | i
Cn1c(SCC(=O)N2CCCc3ccccc32)nnc1-c1c[nH]c2ccccc12 | 0.1
CCCCNCc1cc(Cl)c(OCCC)c(OCC)c1 | i
CCOC(=O)c1c(-c2ccccc2Cl)cn2ccccc12 | 6.7
CCOC(=O)CC(=O)Nc1nc2ccccc2s1 | 0.7
CC(C)C(=O)NCCSc1c[nH]c2ccccc12 | 0.8
O=C(CSc1nc2ncc(Br)cc2[nH]1)Nc1ccc2c(c1)OCO2 | 1.7
O=C(CCn1cccc1)Nc1ccc(F)cc1 | i
CC(C)C(NC(=O)c1ccco1)C(=O)NCC(c1ccco1)N1CCCCC1 (stereo unspecified) | i
CCC(C)OC(=O)C1=C(C)NC(=O)CC1c1ccccc1OC (stereo unspecified) | i
O=C(N1CCOCC1)N1CCN(C(c2ccccc2)c2ccccc2)CC1 | 0.4
O=S(=O)(/N=C(/c1ccccc1Cl)N1CCOCC1)c1ccccc1 | 0.4
CCCCNS(=O)(=O)c1ccc(NC(=O)c2c(-c3ccccc3Cl)noc2C)cc1 | i
COc1ccc(C2=Nc3ccccc3OC2)cc1 | 0.3
COC(=O)c1[nH]c2cc(OC)ccc2c1NC(=O)CN1CCN(c2cccc(C)c2)C(C)C1 (stereo unspecified) | i
O=C1CCC(C(=O)Nc2cccc3ccccc23)N1 (stereo unspecified) | i
N/C(COc1ccc(F)cc1)=N\NC(=O)c1cccnc1Oc1ccccc1 | i
Cc1ccc(C(=O)N2CC3(C(C)C)CN(C(=O)c4ccc(C)cc4)CC(C(C)C)(C2)C3=O)cc1 | 1.0
O=C(Nc1ccccc1C(=O)NCc1ccc(Cl)cc1)c1ccco1 | i
Cn1c(=O)[nH]c(=O)c2c1nc(Br)n2CCCCSc1nc2ccccc2o1 | 2.3
CNC(=O)c1ncnnc1N(C)C(=O)NCc1ccccc1 | 1.1
O/N=C(\COc1ccccc1O)c1ccccc1 | 2.2
C=CCn1c(O)c(N=NC(=O)CNC(=O)/C=C/c2ccco2)c2ccccc21 | 2.6
COc1ccc(-n2c(Cc3cc(=O)[nH]c(=O)[nH]3)nnc2SCC(=O)NC2CCCC2)cc1 | 0.4
CCCC(C)NC(=O)COC(=O)c1ccc(Cl)c(S(N)(=O)=O)c1 (stereo unspecified) | i
CCCCCCOC(=O)C1=C(C)NC(=O)NC1c1ccc(O)cc1 (stereo unspecified) | i
O=C(OCC(=O)N1CCCCC1)c1cc2ccccc2cc1O | i
Cc1ccc(Cn2c(=O)c3c(nc4n3CCN4Cc3ccco3)n(C)c2=O)cc1 | 0.9
O=C(NC1CCCC1)C1CCCN(S(=O)(=O)c2cccc3cccnc23)C1 (stereo unspecified) | 4.4
O=C(CSc1nc(-c2ccco2)cc(C(F)(F)F)n1)NC1CCCC1 | 2.8
COc1ccc(S(=O)(=O)n2oc(=O)cc2-c2ccccc2)cc1OC | i
O=C(NCc1ccco1)c1cc2n(n1)C(C(F)(F)F)CC(c1ccc(F)cc1)N2 (stereo unspecified) | i
CCOc1cc(CNc2ccccc2)cc(Br)c1OCc1ccc(F)cc1 | 3.7
Cn1c(=O)n(C)c2cc(S(=O)(=O)NCCc3ccccc3)ccc21 | 0.1
Cc1cc(C(=O)OCn2nnc3ccccc3c2=O)c(C)o1 | i
S=c1[nH]nc(Cc2cccc3ccccc23)n1-c1ccccc1 | 1.6
N#CC1(c2ccccc2)CCCN1C(=O)c1ccccc1Br (stereo unspecified) | i
Cc1[nH]nc(N2CCCCC2)c1[N+](=O)[O-] | 0.8
CC(=O)NC(C1C(=O)CC(C)(C)CC1=O)(C(F)(F)F)C(F)(F)F | 0.2
CCCn1nc(NC(=O)c2cccs2)c2cc3cc(OC)ccc3nc21 | 0.5
O=C(Nc1cccc2ncccc12)c1cccnc1 | 0.8
O=S(=O)(Nc1ccc(Cl)c(C(F)(F)F)c1)c1cnc[nH]1 | i
Cc1cc(Cl)c(OCCCn2cncn2)c(Br)c1 | 2.0
O=C1c2ccccc2-c2c1cccc2C(=O)N1CCN(C(=O)c2ccco2)CC1 | 3.6
O=C(CCc1nc2ccccc2[nH]1)NC1CCCCC1 | i
Cc1csc2ncc(C(=O)NCc3ccccn3)c(=O)n12 | 1.3
CN1CCN(S(=O)(=O)c2ccc(NC(=S)NC(=O)c3ccccc3)cc2)CC1 | 0.1
c1ccc(CN2CCN(CCCNc3ccc4nnc(-c5ccccc5)n4n3)CC2)cc1 | i
CC(C)(C)NS(=O)(=O)c1ccc(NC(=O)c2cc(-c3ccccc3)nc3ccccc23)cc1 | i
Cc1ccc(Cn2c(SCC(C)C)nc3c2c(=O)[nH]c(=O)n3C)cc1 | i
